Source: PubChem BioAssay
GALR2 agonist = agonists of human galanin receptor 2 (GALR2); AID 803; GALR2-expressing cells, agonist activation read-out; 140,000 tested, 0.48% active; O43603; activation, %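 (tested at 5 µM)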;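 active = above mean plus 3 SD of all compounds, about 5% in these data, not always enough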;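 note: 0% = vehicle buffer wells and 100% = reference agonist at full effect; tested in CHO reporter cells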
Target sequence (O43603 whole entry, looked up): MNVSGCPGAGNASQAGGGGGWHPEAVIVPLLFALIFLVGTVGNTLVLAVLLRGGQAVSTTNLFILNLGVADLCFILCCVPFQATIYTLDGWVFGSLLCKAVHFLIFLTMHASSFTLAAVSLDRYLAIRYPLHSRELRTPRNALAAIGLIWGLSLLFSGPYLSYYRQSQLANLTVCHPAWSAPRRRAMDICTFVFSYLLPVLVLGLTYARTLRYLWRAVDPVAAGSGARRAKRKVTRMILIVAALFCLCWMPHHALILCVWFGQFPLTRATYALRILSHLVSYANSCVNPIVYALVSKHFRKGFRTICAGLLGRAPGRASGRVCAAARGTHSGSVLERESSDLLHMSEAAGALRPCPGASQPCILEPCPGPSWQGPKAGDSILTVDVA
PKD1 inh = blocks activity of human protein kinase D1; Q15139; PKD1 kinase fluorescence polarization assay; inhibition, %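 (about 10 µM by stock and volumes)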; 200,000 tested, 0.056% active;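 active = inhibition of 50% or more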;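 note: controls were vehicle for no effect and a reference inhibitor for full effect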
HSV replic up = increases HSV replication in cells. HSV replication augmentation in cells, fold increase. maximum fold increase. 220,000 tested, 0.005% active. AID 1956;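 active = peak rise of 1.5-fold or more in the series; inconclusive = self-fluorescent or not available for retest; tested in PC3 cells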;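 note: first round at 10 µM; read as green reporter fluorescence; hits show the peak of a series up to 25 µM; 1 = signal of infected wells without compound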
RGS16-Gao = regulators of human RGS16-Galphao interaction. binding response (% of control), % at 10 µM. 220,000 tested, 0.38% active. O15492+P09471. AID 1441. bead-based flow cytometry RGS16-Galphao binding, fluorescence; actives lie on both sides;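 active = below 25% or above 175%, edge rows of some plates excepted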;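 note: Galphao activated by GDP with aluminum fluoride before binding; 100% = wells without compound and 0% = beads without RGS; some results beyond the cut were filed as inactive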
Target sequence (O15492 whole entry, looked up): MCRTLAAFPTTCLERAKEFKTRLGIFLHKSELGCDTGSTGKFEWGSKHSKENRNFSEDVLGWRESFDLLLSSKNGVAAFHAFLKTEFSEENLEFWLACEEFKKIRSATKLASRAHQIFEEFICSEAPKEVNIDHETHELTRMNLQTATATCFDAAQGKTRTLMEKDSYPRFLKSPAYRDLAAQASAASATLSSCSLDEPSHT
Target sequence (P09471 whole entry, looked up): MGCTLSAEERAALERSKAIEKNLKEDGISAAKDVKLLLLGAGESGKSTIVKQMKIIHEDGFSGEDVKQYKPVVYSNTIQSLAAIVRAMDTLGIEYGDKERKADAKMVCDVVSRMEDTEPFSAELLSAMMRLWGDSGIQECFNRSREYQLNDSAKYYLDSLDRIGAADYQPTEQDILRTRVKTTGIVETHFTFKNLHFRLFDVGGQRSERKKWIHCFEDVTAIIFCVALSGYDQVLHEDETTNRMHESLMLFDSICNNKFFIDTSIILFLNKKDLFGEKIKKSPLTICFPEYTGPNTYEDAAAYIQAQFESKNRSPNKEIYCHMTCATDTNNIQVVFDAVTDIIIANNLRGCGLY
INS promoter inh = TRM-6 insulin promoter activity inhibition; inhibition, % at 2 µM; 130,000 tested, 0.9% active; AID 1273; TRM-6 cells (human fetal islet line), insulin promoter-eGFP reporter, imaging; reporter expression induced with tamoxifen;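 active = inhibition above the mean plus 3 SD, with well images judged a real hit on visual review, cut at about 60% in these data, passing the limit was not always enough; inconclusive = inhibition over the cutoff but images rejected on review; inactive = inhibition not above the cutoff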
INS promoter inh cell count = further read-out of INS promoter inh, marked with its call; normalized cell count, %; measured here: cell count, toxicity; reference of the scale not given here;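 cells exposed to compound for 48 h; stained nuclei by imaging scaled within each plate; lower means fewer cells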
HSV replic up primary fold = further read-out of HSV replic up, marked with its call; fold increase; compound at 10 µM; measured here: primary screen fold increase 10 uM; tested in PC3 cells;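 GFP signal in the first replicate; 1 = infected wells without compound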
An asterisk follows results filed as active; i = inactive; ? = inconclusive; · = not tested or not shown.

SMILES	GALR2 agonist	PKD1 inh	HSV replic up	HSV replic up primary fold	RGS16-Gao	INS promoter inh	INS promoter inh cell count
COc1cc(/C=C(/C#N)C(=O)Nc2ccc(Cl)cc2)ccc1Oc1nc(Cl)ncc1F	·	·	i	0.87	97	·	·
O=S(=O)(c1ccccc1)N1N=C(c2cccs2)CC1c1ccc(F)cc1 (stereo not given)	-1.9	-9	i	1.1	102	-8	144
COc1ccc(OC)c(Nc2ccc(C(=O)O)cc2[N+](=O)[O-])c1	-2.2	7	i	0.92	99	-38	53
C/C(=N/NC(=O)c1ccoc1C)c1cccc(NC(=O)C(F)(F)F)c1	1.1	8	i	1.1	108	0	148
CCOC(=O)C1=C(C)N=C2SC(C)C(=O)N2C1c1cccc(F)c1 (stereo not given)	-2.7	3	i	0.97	104	-3	138
O=C(COc1cc(O)c2c(=O)c3ccccc3oc2c1)OCc1ccccc1	·	·	i	0.89	108	·	·
O=C(Nc1ccc(-c2nc3ccccc3o2)cc1)c1cccnc1	-0.8	-1	i	0.81	105	26	140
Cc1ccc(OCC(=O)N2N=C(c3ccc(Cl)cc3)CC2c2ccco2)c([N+](=O)[O-])n1 (stereo not given)	·	-6	i	1.1	103	·	·
Nc1nc(-n2cnnc2)nn1-c1ccccc1	-2.8	-21	i	1	85	·	·
COc1ccc(-c2nn(-c3ccccc3)cc2C(=O)O)cc1OC	-0.8	-2	i	1	113	-9	124
O=C(CN1C(=O)NC(Cc2c[nH]c3ccccc23)C1=O)Nc1cccc(S(=O)(=O)N2CCCC2)c1 (stereo not given)	·	1	i	0.97	100	·	·
O=C(c1nn(Cc2ccccc2)c(=O)c2ccccc12)N1CCN(C/C=C/c2ccccc2)CC1	-0.4	-1	i	0.68	103	3	131
CC1(C)CC(=O)C/C(=N/Nc2nc3ccccc3s2)C1	·	2	i	1	101	50	93
COc1cc(OC)cc(C(=O)NC(C(=O)O)C23CC4CC(CC(C4)C2)C3)c1 (stereo not given)	·	-4	i	1.1	103	47	120
O=C(CSc1nnc(-c2ccc3c(c2)OCO3)o1)Nc1ncc(C(F)(F)F)cc1Cl	·	-1	i	0.63	97	·	·
Cc1ccc(Oc2ccc(S(=O)(=O)N3CCOCC3)cc2C(N)=O)c(-n2nc3ccccc3n2)c1	0.3	13	i	0.63	95	45	110
CCOC(=O)COc1ccc(S(=O)(=O)N2CCN(c3ccc(OC)cc3)CC2)cc1	·	-1	i	1.1	101	-7	43
COC(=O)Nc1ccc(S(=O)(=O)N(C)C)cc1	0.0	-3	i	0.75	89	57	117
CCCOc1ccc(C2C(C(=O)c3ccco3)=C(O)C(=O)N2CCCn2ccnc2)cc1 (stereo not given)	-2.1	3	·	·	100	-93	138
Cc1nn(CC(=O)c2ccc(Cl)s2)c(C)c1[N+](=O)[O-]	·	-5	i	0.97	103	-125	76
COc1ccc(Cl)cc1NC(=O)CC(C)=O	-0.8	5	i	0.9	104	·	·
COc1ccc(CCN(C)C2CC(=O)N(c3ccccc3)C2=O)cc1OC (stereo not given)	·	·	i	0.92	109	·	·
O=C(O)CCSc1nnc(COc2cccc3ccccc23)n1-c1cccc(Cl)c1	·	-1	i	1	106	22	138
CCOc1ccc(NC(=O)CN2C(=O)CSC2=O)cc1	·	1	i	1.1	107	·	·
CSc1nc2ccc(NS(=O)(=O)c3c(Cl)cccc3Cl)cc2s1	-1.9	-6	i	1	90	-40	72
SMILES	GALR2 agonist	PKD1 inh	HSV replic up	HSV replic up primary fold	RGS16-Gao	INS promoter inh	INS promoter inh cell count
O=C(C1CCC(CNS(=O)(=O)c2cccc3nsnc23)CC1)N1CCN(c2ccccn2)CC1 (stereo not given)	·	-1	i	0.84	106	-21	93
CCN(CC)c1ccc2cc(-c3nc4ccccc4[nH]3)c(=O)oc2c1	-1.7	46	?	·	122	·	·
O=C(Nc1ccc(F)cc1)Nc1ccccc1N1CCCCC1	·	·	i	1.1	98	·	·
Cc1nc2ncnn2c(C)c1CCC(=O)N1CCN(C(=O)c2ccco2)CC1	-1.7	20	i	1.1	97	·	·
CC1CCc2c(sc3nc(CN4CCOCC4)nc(N4CCc5ccccc5C4)c23)C1 (stereo not given)	-0.3	1	i	0.87	96	-12	138
Cc1ccc(C2(C)NC(=O)N(CC(=O)NCc3cccs3)C2=O)cc1 (stereo not given)	-1.1	-7	i	0.96	119	-9	137
CCN(CC)S(=O)(=O)c1ccc(/C=C/C(=O)O)cc1	·	0	i	0.99	99	·	·
Oc1ccc(N2CCN(c3ncnc4sc(-c5ccccc5)cc34)CC2)cc1	·	-8	i	0.72	91	-64	60
O=C(Cc1c(Cl)cccc1Cl)NC1=NCCS1	·	-1	i	0.88	112	-27	126
Cc1ccc(/C=C(\C#N)C(=O)NCCN2CCOCC2)cc1	·	4	i	1	111	-4	124
CCOc1ccc(CCNC(=O)COC(=O)c2cccnc2OCC)cc1OCC	-1.8	1	i	0.95	108	-43	105
O=C(CCCOc1ccccc1)Nc1ccc(S(=O)(=O)N2CCOCC2)cc1	-2.6	-5	i	1	98	-20	129
CSc1nnc(C)c(=O)n1COC(=O)/C=C/c1ccccc1	·	0	i	0.91	104	0	85
COC(=O)CSc1nc(N)c2c3c(sc2n1)C(c1ccccc1)SC(c1ccccc1)C3 (stereo not given)	0.8	-16	?	·	86	60	72
COC(=O)C1=C(O)/C(=C/c2cccc(OC)c2O)N=C1C	·	·	i	0.98	103	·	·
Cc1ccc(-c2csc3ncn(-n4c(C)ccc4C)c(=O)c23)o1	-1.1	-6	i	0.98	124	56	64
O=C1CC(N2CCN(Cc3ccccc3)CC2)C(=O)N1c1ccccc1 (stereo not given)	-2.2	-10	i	1	92	·	·
CN(NC(=O)c1ccc(Cl)cc1Cl)C1=NS(=O)(=O)c2ccccc21	·	2	i	0.95	101	·	·
COc1cccc(-c2cc(C(=O)Nc3cc(C)n(Cc4ccc(Cl)cc4)n3)no2)c1	-1.5	-6	i	0.67	100	·	·
COc1ccc(Cl)cc1N1Cc2ccccc2C1	-2.5	0	?	·	95	-20	74
COc1ccccc1-c1nc(C#N)c(N2CC(C)CC(C)C2)o1 (stereo not given)	·	0	i	0.88	103	·	·
C/C(CC(=O)Nc1ccc(N(C)C)cc1)=N\NC(=O)C(=O)NCc1ccccc1	·	4	i	1	100	·	·
COc1cccc2cc(C(C)OC(=O)Nc3ccc(C)cc3)oc12 (stereo not given)	·	6	i	0.96	100	45	90
Cc1sc2c(=O)n3c(nc2c1C(=O)NCCCN1CCOCC1)CCCCC3	-0.1	4	i	0.96	154	·	·
CCCCn1c(SCC(=O)Nc2cccc(C)n2)nnc1-c1ccco1	0.8	3	i	1	105	·	·

Rewritten comma-delimited: 3 of the compounds above.
mol,GALR2 agonist,PKD1 inh,HSV replic up,HSV replic up primary fold,RGS16-Gao,INS promoter inh,INS promoter inh cell count
Cc1nc2ncnn2c(C)c1CCC(=O)N1CCN(C(=O)c2ccco2)CC1,-1.7,20,i,1.1,97,·,·
CC1CCc2c(sc3nc(CN4CCOCC4)nc(N4CCc5ccccc5C4)c23)C1 (stereo not given),-0.3,1,i,0.87,96,-12,138
Cc1ccc(C2(C)NC(=O)N(CC(=O)NCc3cccs3)C2=O)cc1 (stereo not given),-1.1,-7,i,0.96,119,-9,137

Next records
SMILES	GALR2 agonist	PKD1 inh	HSV replic up	HSV replic up primary fold	RGS16-Gao	INS promoter inh	INS promoter inh cell count
CCn1c(SC)nnc1-c1nnc(SC)n1CC	-0.2	-7	i	0.94	114	74	100
CSc1nnc(-c2ccccc2)n1N	-1.6	-1	i	0.99	100	·	·
Cc1cccc2cc(C#N)c(N3CCCC3)nc12	-0.3	-5	i	0.94	103	-64	51
CCCCc1ccc(NC(=S)N2CCCC(CO)C2)cc1 (stereo not given)	-1.0	3	i	1	153	·	·
COc1cc(NC(=O)CN2C(=O)NC(C)(CCC(C)C)C2=O)cc(OC)c1 (stereo not given)	-1.9	7	i	0.79	105	·	·
O=C(O)c1ccccc1C(=O)Nc1ccc(Oc2cccc3ccccc23)cc1	·	-2	i	0.8	99	·	·
CNC(=O)Nc1ccccc1C(=O)Nc1ccccc1	·	·	i	1	97	·	·
O=c1c2ccccc2[nH]c(=S)n1CCC1=CCCCC1	0.2	4	i	1.1	112	·	·
CC(C)C[C@@H]1NC(=O)[C@H](C(C)C)NC(=O)c2cc([N+](=O)[O-])cc(I)c2OCC[C@@H](C(N)=O)NC1=O	-2.4	-11	i	0.75	104	-27	103
CC1(C)CC(=O)C=C(Nc2ccc3c(c2)OCCO3)C1	-0.9	-6	i	1.1	92	·	·
Cc1cc2nc3c(nc2cc1C)C1(C(=O)N(C)C)CCC3(C)C1(C)C (stereo not given)	-1.2	-2	i	0.86	95	22	73
Cc1ccc2c(-c3ccc([N+](=O)[O-])cc3)cc(=O)[nH]c2c1	·	·	i	1.1	113	·	·
CC(NC(=O)COC(=O)CC(c1ccccc1)c1ccccc1)c1ccccc1 (stereo not given)	-1.0	-11	i	1.3	110	·	·
Cc1cccc(N=C2NN=C(c3ccc4c(c3)OCCO4)CS2)c1	-2.2	0	i	0.97	107	5	110
CC(C(=O)O)c1ccc(-c2ccccc2)c(F)c1 (stereo not given)	-0.1	-4	i	0.77	103	-36	108
Cc1cccc(Nc2nnc(SCC(=O)NCc3cccs3)s2)c1	·	0	i	0.96	104	-12	114
CC(C)(C)c1ccc(OCCOCCn2cnc3ccccc3c2=O)cc1	·	2	i	0.95	96	·	·
CCNc1nc(NCC)n2c(SCC(=O)N3CC4(C)CC3CC(C)(C)C4)nnc2n1 (stereo not given)	1.0	1	i	0.82	100	·	·
Cc1onc(-c2ccccc2)c1C(=O)N/N=C/c1cc2c(cc1Br)OCO2	-0.8	2	i	0.94	101	57	139
COc1ccc(CC(=O)NCC2(N3CCCCC3)CCCCC2)cc1	·	-2	i	1.1	95	-118	141
O=C(NCC1CCCO1)C1CCN(C2CCN(CCCC3CCCC3)CC2)CC1 (stereo not given)	·	2	i	0.92	100	13	137
O=C(COc1ccc(Cl)cc1)NCCSCc1cccc(Cl)c1	-2.7	-13	i	0.92	101	48	110
Cc1nc(NC(=O)/C=C/c2ccccc2)sc1C(=O)Nc1cccc(Cl)c1	1.6	-2	i	0.86	177	·	·
Cc1cc(OCC(=O)Nc2ccc(N3CCCC3)cc2)cc(C)c1Cl	-1.4	1	i	0.91	100	33	40
CC(C)C(C)NC(=O)COc1ccc(S(=O)(=O)N2CCOCC2)cc1Cl (stereo not given)	·	-5	i	1.2	91	·	·
SMILES	GALR2 agonist	PKD1 inh	HSV replic up	HSV replic up primary fold	RGS16-Gao	INS promoter inh	INS promoter inh cell count
CCOc1ccc(C2=NNC(c3cccs3)=Nc3ccc(OCC)cc32)cc1	-2.2	7	·	·	100	16	84
C/C(CC(=O)Nc1ccc(N(C)C)cc1)=N\NC(=O)c1cnccn1	-0.6	-2	i	0.94	94	46	132
COc1ccc(NCc2nnc(SCC(=O)NCc3ccco3)n2-c2ccccc2OC)cc1	-0.8	8	i	1	100	-100	44
Cc1cc(NC(=O)CSc2nccn2-c2ccc([N+](=O)[O-])cc2)no1	·	11	i	0.94	109	25	135
CCCCn1c(SCC(=O)NCc2ccco2)nc2cc(S(N)(=O)=O)ccc21	-2.3	-2	i	0.97	100	-8	125
O=C(Nc1ccc(N2CCCCC2)cc1)C(Cl)c1ccccc1 (stereo not given)	·	-4	i	0.98	100	·	·
COC(=O)c1cn(Cc2ccc(C(F)(F)F)cc2)cc(F)c1=O	·	·	i	1	96	·	·
C#CCCCCCCC#CCN(C)C	-1.2	-6	i	0.95	101	0	119
CC1Cc2ccccc2N1C(=O)COC(=O)CNC(=O)c1ccc(Br)o1 (stereo not given)	-2.0	4	i	0.93	102	24	53
CC(=O)Nc1ccc2nsnc2c1	·	·	i	1.1	101	·	·
Cc1nnc(NC(=O)CSc2ncnc3scc(-c4ccccc4)c23)s1	0.5	10	i	1.1	104	-4	111
O=S(=O)(NCCc1csc(-c2cccnc2)n1)c1cccs1	-0.8	-4	i	0.93	108	·	·
COc1cccc(C(=O)NNC(=O)CCc2ccccc2)c1	·	4	i	0.89	98	·	·
Cc1ccc(CNC(C)c2ccccc2)cc1 (stereo not given)	-0.6	-8	i	1	110	26	113
O=C(NNc1cccc(Cl)n1)Nc1ccccc1F	·	3	i	0.78	96	·	·

In a second layout: 2 of the compounds above
O=C(Nc1ccc(F)cc1)Nc1ccccc1N1CCCCC1
- GALR2 agonist = ·
- PKD1 inh = ·
- HSV replic up = i
- HSV replic up primary fold = 1.1
- RGS16-Gao = 98
- INS promoter inh = ·
- INS promoter inh cell count = ·

CCOC(=O)COc1ccc(S(=O)(=O)N2CCN(c3ccc(OC)cc3)CC2)cc1
- GALR2 agonist = ·
- PKD1 inh = -1
- HSV replic up = i
- HSV replic up primary fold = 1.1
- RGS16-Gao = 101
- INS promoter inh = -7
- INS promoter inh cell count = 43
